# Source: PubChem BioAssay
# Menin-MLL FL inh: qHTS Assay for Inhibitors Targeting the Menin-MLL Interaction in MLL Related Leukemias: Competition With Fluorescein Labeled MLL-derived Peptide | Fluorescence polarization, fluorescein-MLL peptide displacement from menin | FP activity change, % at 61.4 µM | 290,000 tested, under 10 active | AID 1766, 2009; inconclusive = falling polarisation curve, or a change in total fluorescence; inactive = total fluorescence flat and polarisation flat or rising; no compound was filed as active; the % refers to the polarisation; negative = inhibition;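 note: % of control where 0% means no effect; inhibitors lower the polarisation; unlabelled MLL peptide was the positive control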
# Sfp PPTase inh: qHTS Assay for Inhibitors of Bacillus subtilis Sfp phosphopantetheinyl transferase (PPTase); 4'-phosphopantetheinyl transferase ffp (Bacillus subtilis), Q9F4F7; Biochemical Sfp PPTase activity, qHTS; Potency, µM, without a hit: max response, negative = inhibition, actives largely listed as inhibitors; hit rate 3.5% among 310,000; AID 1490, 2009; active = well fitted inhibition curve with a large enough effect; inconclusive = small, poorly fitted or top-dose-only effect, or another doubt; inactive = no such curve, though single readings can be large or run the other way;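 note: the enzyme is Sfp with the accession as filed and its product quenches rhodamine fluorescence; potency is the fitted concentration of half-maximal effect; 0% = enzyme reaction without inhibitor and -100% = no enzyme wells; top concentration of the series not given in the record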
#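 With Hepes-Na pH 7.6 buffer containing 10 mM MgCl2, Sfp (15 nM) modified BHQ-2-YbbR (12.5 uM) using rhodamine-CoA (5 uM). Two reads 30 minutes apart at 525/598 nm yielded each well's rate.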
# TRPV1 PAM: HTS Assay for Compounds that Act as Potentiators of the Vanilloid Receptor 1 | Transient receptor potential cation channel subfamily V member 1 (Homo sapiens), Q8NER1 | TRPV1-expressing cells, Fluo-8 calcium influx, capsaicin EC20 potentiation; host cell line not named in the record; control for the full effect not named in the record | hit rate 0.02% among 320,000 | potentiation, % at 8.33 µM; active means potentiation above 80%; inconclusive means 30% to 80%; inactive means below 30%; note: 0% is about no effect
#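 Fluo-8 calcium influx in TRPV1-expressing cells, kinetic read (ex 480/em 520 nm). Compound added and read 3 min for agonist activity, followed by capsaicin at EC20 final and 2 min further read for enhancement.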
# gsp antag: qHTS for Antagonists of gsp, the Etiologic Mutation Responsible for Fibrous Dysplasia/McCune-Albright Syndrome: qHTS; gsp-mutant cells, cAMP HTRF, 30 min; control for the full effect not named in the record; Potency, µM (doses to about 76.9 µM), for the others: at the top dose activity change, negative = inhibition, actives largely listed as inhibitors; hit rate 0.4% among 340,000; AID 624288, 2012; active = falling curve of any shape with a large fitted effect; inconclusive = falling curve, mostly with a smaller effect; inactive = flat or rising curve; cell line not stated here;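 note: intracellular cAMP measured with PDE inhibitor Ro 20-1724 present during compound exposure; potency is the fitted concentration of half-maximal effect; % is set by controls: 0 for no effect and ±100 for the full control effect; nearly all actives have a fitted effect of over 65% in size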
#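 Measurement of cellular cAMP by homogeneous time-resolved fluorescence following a 30 min compound exposure at 37C. The PDE inhibitor […] was present throughout; the assay buffer was DPBS with 0.05% BSA and 0.005% Tween 20.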
# gsp ag: qHTS for Agonist of gsp, the Etiologic Mutation Responsible for Fibrous Dysplasia/McCune-Albright Syndrome: qHTS. AID 624287, 2012. hit rate 0.13% among 340,000. Potency, µM (doses to about 76.9 µM), without a hit: top-dose activation (cAMP increase), hits mostly activators. gsp mutant cells, cAMP HTRF, 30 min; control for the full effect not named in the record; active = well fitted activation curve with a large enough effect; inconclusive = small, poorly fitted or top-dose-only effect, or another doubt; inactive = no such curve, though single readings can be large or run the other way; cell line not stated here;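 note: phosphodiesterase inhibitor Ro 20-1724 added with compounds to block cAMP breakdown; potency is the fitted concentration of half-maximal effect; nearly all actives have a fitted effect of over 60% in size; about a fifth of the inactives were tested at one dose only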
#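 Cells in DMEM/10% FBS with G418 were pretreated with compounds in DMSO plus […] (300 uM stock) for 30 min at 37C. cAMP was measured by HTRF (cAMP-d2 plus anti-cAMP antibody-K) after 30 min at room temperature.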
# ClpP mod: qHTS Assay for Activators of ClpP; ATP-dependent Clp protease proteolytic subunit (Bacillus subtilis (strain 168)), P80244; purified B. subtilis ClpP, FRET peptide cleavage, 20 min; Potency, µM (highest dose often 57.5 µM), without a hit: at the highest dose activity change, negative = active; hit rate 1.9% among 340,000; active = well fitted falling curve with a large enough effect; inconclusive = small, poorly fitted or top-dose-only effect; inactive = no such curve, though single readings can be large or run the other way; note: potency is the fitted concentration of half-maximal effect; the source files actives as falling curves though it sought activators and does not explain the sign; nearly all actives have a fitted effect of over 65% in size; many hits overshoot -100%
# Target sequence (P80244 whole entry, looked up): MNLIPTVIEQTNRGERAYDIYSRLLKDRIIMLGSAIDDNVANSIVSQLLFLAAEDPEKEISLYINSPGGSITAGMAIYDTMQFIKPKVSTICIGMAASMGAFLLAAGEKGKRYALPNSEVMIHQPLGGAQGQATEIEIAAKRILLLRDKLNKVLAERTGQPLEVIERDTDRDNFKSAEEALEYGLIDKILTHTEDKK
#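 Buffer: 100 mM Tris/HCl pH8, 100 mM KCl, 0.05% low protease BSA, 2.5% glycerol, 0.01% Tween-20. ClpP 10 microg/mL final; 20 min RT; delta FRET normalized to ADEP and DMSO controls.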
# D2 PAM: Beta-Arrestin HTS for Positive Allosteric Modulators of the Human D2 Dopamine Receptor: Potentiators | DiscoveRx D2 beta-arrestin cells, luminescence, 90 min; 100% = 57 uM dopamine signal | hit rate 0.23% among 360,000 | potentiation, % (no concentration beside the values); active = potentiation of 50% or more; inconclusive = 30% to 50%; inactive = 30% or less;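 note: compound concentration not given in the record; tested on top of an EC20 dose of dopamine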
# Target sequence (P14416 whole entry, looked up): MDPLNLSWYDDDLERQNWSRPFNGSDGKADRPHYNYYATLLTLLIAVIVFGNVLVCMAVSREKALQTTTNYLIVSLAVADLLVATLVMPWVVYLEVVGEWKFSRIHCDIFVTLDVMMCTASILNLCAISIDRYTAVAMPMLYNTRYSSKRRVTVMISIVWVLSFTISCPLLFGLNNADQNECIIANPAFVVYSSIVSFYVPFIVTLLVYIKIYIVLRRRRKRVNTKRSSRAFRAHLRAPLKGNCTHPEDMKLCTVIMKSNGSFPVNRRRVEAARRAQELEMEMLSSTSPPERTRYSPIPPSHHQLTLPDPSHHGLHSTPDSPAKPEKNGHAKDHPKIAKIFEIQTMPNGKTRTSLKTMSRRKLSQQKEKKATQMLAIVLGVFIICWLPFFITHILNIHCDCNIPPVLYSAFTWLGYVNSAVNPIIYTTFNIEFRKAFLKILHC
#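 PathHunter beta-arrestin assay in DiscoveRx D2 cells. Compounds were added with an EC20 of dopamine (50 nM final) for 90 min at 37 deg C. Luminescence was read 1 h after detection reagent, with 57 uM dopamine as the EC100 control.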
# Active calls of the source: *; u = inconclusive; x = no result given; & = joins results of further samples; [ ] = remark or other dose.
molecule	Menin-MLL FL inh	ClpP mod	TRPV1 PAM	gsp ag	D2 PAM	Sfp PPTase inh	gsp antag
COc1ccccc1C(=O)NCCNC(=O)c1ccco1	3.4	-2.1%	7	-15%	-4	7%	12%
COCCn1c(=S)[nH]c2cc(C(=O)NCCc3ccc(OC)c(OC)c3)ccc2c1=O	-1.1	-0.2%	-2	6%	-11	0%	1%
O=C(COC(=O)c1cc(=O)[nH]c2ccccc12)Nc1nc(-c2cccc(Br)c2)cs1	9.4	-4.6%	3	8%[15.4 µM]	4	1%	-12%
Cn1c2c(c(=O)n(C)c1=O)C(c1ccccc1Cl)C(C#N)=C(N)O2 (stereo unspecified)	15	4.4%	14	-4%	-7	-15%	-1%
Cn1c(=O)c(C(=O)CN2CCOCC2)c(N)n(Cc2ccccc2)c1=O	0.0	2.3%	-6	u	-16	16%	7%
O=C(CN1C(=O)C2C3CCC(C3)C2C1=O)N1CCN(Cc2ccccc2)CC1 (stereo unspecified)	1.6	x	-1	8%[15.4 µM]	-2	24%	9%
CC1(C)CC(N(Cc2ccc(F)cc2)C(=O)c2ccc(F)cc2)CCO1 (stereo unspecified)	-2.2	x	-6	4%[15.4 µM]	-1	13%	-3%
O=[N+]([O-])c1ccc(C(=S)N2CCN(c3ccc(F)cc3)CC2)cc1	-0.8	x	-4	7%[15.4 µM]	0	16µM*	9%
CN(C)c1cccc(C(=O)OCC(=O)Nc2ccccc2-c2ccccc2)c1	3.6	1.2%	-9	51%[15.4 µM]	3	-7%	11%
CCn1c(SCC(=O)c2[nH]c(C)c(C(C)=O)c2C)nnc1-c1ccncc1	2.6	0.6%	7	-4%	-6	16%	-10%
CCCCNC(=O)CCn1nc(-c2ccc(Cl)cc2)c2ccccc2c1=O	1.0	-1.4%&-1.1%	-11	0%[15.4 µM]	-6	-5%	-9%
CCCn1nnnc1NC(=O)CSc1ccc(Cl)cc1	-1.9	0.3%	1	-35%[inhibitor]	3	13%	-17%
CSc1ccc(/C=N/N2CCN(c3ccccc3)CC2)cc1	-2.8	29%	-6	-6%[15.4 µM]	-1	10%	7%
CC(=O)Nc1ccc(S(=O)(=O)N2CCC(C(N)=O)(N3CCCCC3)CC2)cc1	3.1	x	2	0%[15.4 µM]	-4	8%	1%
O=C(CN1C(=O)NC2(CCCCCC2)C1=O)NCCc1ccccc1	x	-0.7%	-19	-8%	-3	x	8%
Cc1cc(C)c2ccc(/C=N/O)nc2c1O	-0.1	-1.5%	17	28%	-8	10%	4%
Cc1noc(-c2ccc(Cl)cc2)c1C(=O)O/N=C(\N)c1ccc(C(C)(C)C)cc1	1.3	-1.1%	-7	11%[15.4 µM]	151*	8%	-1%
COc1ccccc1N1CCN(C(=O)C2CC2)CC1	x	x	x	-13%[15.4 µM]	-6	x	-20%
CC(=O)Nc1ccc(NS(=O)(=O)c2ccc(OC(C)C(=O)N3CCOCC3)cc2)cc1 (stereo unspecified)	x	-1.2%	5	-3%[15.4 µM]	-7	x	3%
COc1ccc(Cl)cc1C(=O)O/N=C(\N)c1ccncc1	1.2	1.1%	-2	2%[15.4 µM]	u	9%	-2%
CCN1CCN(c2nc(N(C)c3ccccc3)nc(N)c2[N+](=O)[O-])CC1	2.6	x	-6	-7%[15.4 µM]	-14	22%	-1%
CC(C)c1ccc(NC(=O)N2CCCC2C(=O)Nc2ccc(-n3cnnn3)cc2)cc1 (stereo unspecified)	5.5	x	17	18%	-10	16%	7%
OC1(c2ccc(OC(F)F)cc2)CSC(=Nc2cccnc2)N1C1CC1 (stereo unspecified)	-1.0	-1.0%	-2	6%	2	-17%	u
CN(C[C@H](Cc1ccccc1)N(C[C@H](c1ccccc1)N(CCc1ccccc1)N=O)N=O)N=O	0.8	0.0%	-9	15%	-5	11%	-10%
COc1cc(/C=C/C(=O)OCC(=O)Nc2ccccc2Cl)cc(OC)c1OC	0.4	x	9	u	-1	16%	1%
COCCCN1C(=O)c2ccc(C(=O)NCCc3ccccc3)cc2C1=O	1.7	-1.2%	-7	-2%[15.4 µM]	-4	7%	-7%
CC(Oc1ccc(Cl)cc1Cl)c1nc(-c2ccc(NC(=O)c3ccccn3)cc2)no1 (stereo unspecified)	1.1	-4.5%	u	25%	-1	4%	-1%
Cc1ccc(O)c(/C=N/NC(=O)Cc2ccc(Cl)cc2)c1	-3.9	1.1%	-4	-27%	-50	19%	4%
O=C1c2ccccc2C(O)N1Cc1cccs1 (stereo unspecified)	2.3	0.7%	3	-66%[inhibitor]	-1	3%	7%
COC(=O)CCCc1nc2ccccc2s1	-0.1	-2.2%	u	3%	-16	20%	10%
C1=CC2(C=C1)OC21CCC2(C=CC3(C2)OC3C2CCCCC2)CC1 (stereo unspecified)	x	-0.1%	x	u	-2	x	x
CC(=O)Nc1cc(C)nn1-c1nc(C)cc(C)n1	-0.7	0.1%	4	-17%[15.4 µM]	-26	2%	0%
Cc1cc(-c2csc3nc[nH]c(=S)c23)cc(C)c1C	5.2	x	-3	11%[15.4 µM]	-8	14%	u
Cc1ccc(C(=O)O/N=C(\N)c2ccccn2)c(C)c1	x	-0.1%	-15	1%[15.4 µM]	7	16%	-1%
CCNC(=O)N(CC)C[C@H]1N[C@@](C)(C(=O)OC)[C@H]2C(=O)N(Cc3ccccc3)C(=O)[C@@H]12	x	-1.6%	x	x	1	x	8%
Cc1ccc2cc(/C=N/Nc3nc4ccccc4[nH]3)c(Cl)nc2c1	5.9	-0.4%	7	-42%[inhibitor]	-7	-18%	5%
C#CCN(C[C@@H]1[C@@H](OC(=O)NCc2ccccc2)[C@@H](OC(=O)NCc2ccccc2)CN(C(=O)OC(C)C)N1C(=O)OC(C)C)S(=O)(=O)c1ccc(C)cc1	x	-2.9%	x	2%	-2	x	x
Cc1cccc2c1N1C(=O)c3c(C(=O)O)cccc3C1CC2C (stereo unspecified)	7.0	-4.6%	0	-19%	0	-5%	-5%
CC(C)C(=O)N1CCC2(CC1)Oc1ccc(F)cc1C(=O)C21CC(c2ccccc2)=NO1 (stereo unspecified)	4.6	-6.6%	-15	u	-13	-10%	-19%
COc1ccccc1Nc1nc(-c2sc(NC(=O)CC(C)C)nc2C)cs1	13	-4.5%	4	-3%	-6	u	1%
CN(CC(=O)Nc1ccc(F)cc1)C(=O)COC(=O)c1cccc(N(C)C)c1	x	-6.6%	0	25µM*	-2	x	-4%
Cc1[nH]nc2c1C(c1ccc(-c3ccc(Cl)cc3)o1)C(C#N)=C(N)O2 (stereo unspecified)	3.0	-3.4%	5	-2%	9	-18%	-3%
CCOc1ccc(CCNC(=O)Cn2nc(C)c3c(C)n(-c4ccccc4)nc3c2=O)cc1	7.4	-1.5%	2	u	-16	6%	-10%
O=C(Nc1ccc(F)cc1)C1CCCN1S(=O)(=O)c1cccc2nsnc12 (stereo unspecified)	4.6	0.2%	8	10%	-14	2%	2%
O=C(Nc1ccccc1F)c1ccc(C(=O)c2ccccc2)cc1	x	0.9%	-17	18%[15.4 µM]	6	4%	2%
Fc1ccc(-c2ccc(-c3nn4c(-c5ccco5)nnc4s3)o2)cc1	8.5	u	-2	-10%	-5	18µM*	-3%
CCOC(=O)c1c(NC(C)=O)sc2c(O)c(CN3CCN(CC)CC3)ccc12	-1.8	1.2%	-1	-4%	-3	5%	6%
C/C(CC(=O)Nc1ccc(C)c(Cl)c1)=N\NC(=O)c1ccccn1	-2.2	x	u	-28%	-2	-17%	-2%
COc1ccc2[nH]c(=O)c(CNc3ccc(C)cc3C)cc2c1	-1.7	x	-3	5%[15.4 µM]	-11	45µM*	3%
COc1ccc(C(=O)NC(=S)NCc2cccnc2)cc1[N+](=O)[O-]	2.3	-0.7%	8	-18%	-4	7%	-2%

# Later entries.
molecule	Menin-MLL FL inh	ClpP mod	TRPV1 PAM	gsp ag	D2 PAM	Sfp PPTase inh	gsp antag
Cc1cc(C)n2nc(C(=O)OCC(=O)Nc3ccc4c(c3)OC(F)(F)O4)nc2n1	2.4	-1.7%	3	-2%	-5	12%	8%
CCCc1c(C(=O)OCC)sc(N)c1C#N	0.6	x	u	-10%	0	63µM*	7%
COc1ccc(CC(=O)NNC(=O)[C@@H]2CCCC[C@@H]2C(=O)O)cc1	x	1.8%	-9	3%	-1	19%	7%
COc1ccc(C(C)=O)cc1CSc1nc2ccccc2o1	1.2	-12%	2	-19%	-8	u	1%
CCC(C)(C(=O)NC1CCCC1)N(Cc1cccs1)C(=O)c1ccccn1 (stereo unspecified)	-0.8	x	-2	-13%[15.4 µM]	-1	14%	5%
Cc1ccc(NC(=O)CCNS(=O)(=O)c2cccc3nonc23)cc1	2.8	-2.4%	-1	-31%[inhibitor]	-5	16%	0%
COc1cccc(C(=O)N(c2ccc(C)cc2)C2C=CS(=O)(=O)C2)c1 (stereo unspecified)	3.4	1.9%	8	u	0	10%	4%
Cc1ccc(NC(=O)/C=C/c2cccs2)c([N+](=O)[O-])c1	3.6	0.1%	2	-15%	-9	7%	2%
CCOc1ccc(N2CC(O)=C(c3nc4ccccc4c(=O)[nH]3)C2=N)cc1	3.5	x	2	-26%	-2	15%	-4%
Cc1ccc(S(=O)(=O)N2CCN(c3ccccn3)CC2)cc1	0.3	x	-11	10%	-6	16%	3%
CCN1CC(CN(C)Cc2nc(-c3ccc(C(F)(F)F)cc3)no2)CC1=O (stereo unspecified)	-2.3	3.3%	-11	u	-2	3%	0%
C[C@H](CO)N1C[C@H](C)[C@@H](CN(C)Cc2cccc(C(=O)O)c2)OCc2cnnn2CCCC1=O	x	1.8%	x	29%	2	x	x
